From PubChem
Mtb hypoxia rep = PubChem AID 1159583 | hit rate 0.1% among 300,000 | fluorescence inhibition, % (no concentration beside the values) | M. tuberculosis hypoxia-regulated fluorescent reporter, fluorescence;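 active means 35 to 45% if threefold the growth effect, above 45% if 1.5-fold the growth effect; inactive means the rest, general growth blockers included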;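 further: wells of about 50 µL received 100 nL stock; 0% = vehicle wells and 100% = reference inhibitor wells; whole bacteria with a GFP reporter of the hypoxia response; strong numbers were not always called active; many hits fall short of the cut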
Sa RN4220 lethal = growth inhibition of S. aureus RN4220, primary screen, OD600 | inhibition, % (concentration not given with the values) | hit rate 0.33% among 330,000 | 16 h;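 active means z-score of -3 or lower and OD600 up to 0.18 on both plates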;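 further: plate controls were untreated cells for no effect and reference antibiotic for full effect; stock transfer was 100 nL into about 80 µL; one replicate is shown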
Bead autofluor = flagged as autofluorescent in microsphere protease counterscreen; compound autofluorescence counterscreen, microsphere flow cytometry; active compounds read high; fluorescence intensity (test concentration not listed); hit rate 3.1% among 360,000; AID 624483;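 active means at least 3 SD above the mean of all compounds, about 16000 in these data; inconclusive means too few beads counted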;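 further: 100 nL of 1 mM stock went into each well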
ugtP null kill = growth inhibition of ugtP-null S. aureus, primary screen, RN4220 ugtP deletion, OD600; 16 h; some inactives read as strong as hits; growth inhibition, % (test concentration not listed); hit rate 0.54% among 330,000; AID 1259309, 2017;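 active means z-score under -3 and OD600 up to 0.15 on both plates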;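 further: plate controls were untreated wells for no effect and antibiotic for full effect; wells of about 80 µL received 100 nL stock; the first replicate is given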
PrP 5UTR inh = inhibition of PrP 5' UTR reporter expression; cell-based PrP 5' UTR mRNA reporter, plate reader; inhibition, % (concentration not given with the values); hit rate 0.35% among 340,000;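 active means every replicate at 50% or more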;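 further: 0 = median of the neutral control wells; tested in H4 reporter cells; numbers are from one replicate; inactives centre near -14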
BJeLR viability = MLPCN primary cell-based screen for lethality selective to Ras in HRASV12 cells | BJeLR (HRASV12) viability, CellTiter-Glo ATP luminescence, 48 h; reference of the scale not given here | inhibition, % (test concentration not listed) | hit rate 0.17% among 300,000 | AID 1554, 2009;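 active means replicate mean above 50%; inconclusive means above 50% but judged a plate artefact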;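 further: 50 nL library stock added to about 25 µL; numbers are from one replicate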
Mtb hypoxia rep growth = recorded beside Mtb hypoxia rep, whose call it bears; growth inhibition, %; measured here: M. tuberculosis growth (absorbance);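 0% = vehicle and 100% = reference antibiotic; read after six days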
* marks the source's active call; other numbers are inactive results; ? = inconclusive; nt = not tested or not shown; & = joins results of further samples.

Abbreviations – A = Mtb hypoxia rep; B = Mtb hypoxia rep growth; C = Sa RN4220 lethal; D = Bead autofluor; E = ugtP null kill; F = PrP 5UTR inh; G = BJeLR viability
O=C(OCC#CCSc1nnc(-c2ccccc2)o1)c1cccs1
  A: 26	B: 18	C: 8.3	D: 17034*	E: 18	F: 0	G: -2

Cc1ccc[n+](C(C)C(=O)c2ccc(Cl)cc2)c1 (stereo unspecified)
  A: 8	B: 10	C: 0.8	D: 3733	E: 9	F: -53	G: -5

CC(Nc1nc(=S)nc(Nc2ccc(F)cc2)[nH]1)c1ccccc1 (stereo unspecified)
  A: 4	B: -1	C: 0.2	D: 3857	E: -4	F: -14	G: -19

O=C(Cn1cc([N+](=O)[O-])cn1)NCC1CCCO1 (stereo unspecified)
  A: -3	B: 7	C: 2.3	D: 2464	E: 3	F: -14	G: 2

CCc1nn(C(CC)C(=O)NCCCc2ccccc2)c(=O)c2cc3occc3n12 (stereo unspecified)
  A: -3	B: 0	C: 4.1	D: 4111	E: -4	F: -11	G: 3

COc1ccc(-n2nc(C(=O)NCC(=O)NC3CCCC(C)C3C)c3ccccc3c2=O)cc1 (stereo unspecified)
  A: 15	B: 8	C: 7.5	D: 3666	E: -10	F: -30	G: -3

Cc1ccc2nc(SCC(=O)NCc3ccco3)nc(=O)n2c1
  A: 2	B: 5	C: 2.6	D: ?	E: 6	F: -15	G: 11

O=C(NCc1cccs1)C(=O)c1cn(CC(=O)N2CCOCC2)c2ccccc12
  A: 7	B: 1	C: 0.6	D: 4596	E: 2	F: -22	G: 10

Cc1nn2c(NCCN(C)C)c3c(nc2c1-c1ccccc1)CCCC3
  A: nt	B: nt	C: nt	D: 4536	E: nt	F: -9	G: -1

CC(C)(CNC(=O)c1ccc([N+](=O)[O-])c(Cl)c1)CNC(=O)c1ccc([N+](=O)[O-])c(Cl)c1
  A: nt	B: nt	C: -3.1	D: 2282	E: -4	F: -13	G: -4

Cc1cc(C)n2nc(SCc3ncc(-c4ccccc4)o3)nc2n1
  A: 3	B: 9	C: 1.7	D: 3448	E: -7	F: -5	G: -4

O=C(NNC(=S)NC(=O)c1ccc(Br)cc1)c1cccc([N+](=O)[O-])c1
  A: 13	B: 3	C: 44	D: 3696	E: 9	F: -7	G: -1

Cc1ccc(C(=O)COC(=O)c2n[nH]c(=O)c3ccccc23)cc1
  A: nt	B: nt	C: 2.9	D: 2174	E: -2	F: -6	G: 3

CCC(C)(C)NC(=O)C(c1ccncc1)N(C(=O)c1sc(C)nc1C)c1ccc(F)cc1 (stereo unspecified)
  A: 9	B: 9	C: 3.2	D: 4054	E: 4	F: -10	G: 6

NC(=O)CSc1nc2ccccc2nc1SCC(N)=O
  A: 10	B: 15	C: 8.2	D: 4682	E: 3	F: -6	G: 16

CCN1CCc2nc(NC(=O)c3ccc4c(c3)OCCO4)sc2C1
  A: 2	B: 8	C: 3.5	D: 9637	E: 3	F: -38	G: 3

NC(=O)c1ccc(NS(=O)(=O)c2ccc(Br)s2)cc1
  A: -1	B: 3	C: 4.7	D: 9156	E: 1	F: 2	G: nt

CC(=O)c1ccc(NC(=O)CCCN2C(=O)/C(=C/C(C)=C/c3ccccc3)SC2=S)cc1
  A: 0	B: 7	C: 7.5	D: 2609	E: 2	F: -24	G: -12

Cn1c(CNC(=O)C(Cc2ccccc2)NC(=O)c2ccccc2)cc(=O)n(C)c1=O (stereo unspecified)
  A: -15	B: 1	C: -0.5	D: 5067	E: -1	F: -8	G: 8

CC1CC(c2ccccc2)n2nc(NC(=O)CCc3ccccc3)nc2N1 (stereo unspecified)
  A: nt	B: nt	C: -3.4	D: 2116	E: -5	F: -12	G: 2

Cc1oc(S(=O)(=O)N2CCOCC2)cc1C(=O)Nc1ccc(F)cc1
  A: 5	B: 2	C: 3.2	D: 3996	E: 0	F: -20	G: 0

CC(C)(C)c1ccc(C(=O)N2CCCN(c3ccc([N+](=O)[O-])cn3)CC2)cc1
  A: 4	B: 1	C: 7.2	D: 3744	E: 5	F: -3	G: 4

CC(C)CC(=O)NC(=S)Nc1nc(-c2cccc3ccccc23)cs1
  A: nt	B: nt	C: -8.4	D: 3546	E: 45	F: -26	G: -5

CCN1CCCC1CNC(=O)CCNC(=O)c1cc(OC)c(OC)c(OC)c1 (stereo unspecified)
  A: 6	B: 7	C: 2.9	D: 10740	E: 0	F: -20	G: 9

COc1cc(/C=N/n2cnnc2)ccc1OCC(=O)N1CCOCC1
  A: nt	B: nt	C: nt	D: 2085	E: nt	F: -34	G: 0

Reformatted as labelled records: four of the compounds above.
CC(=O)c1ccc(NC(=O)CCCN2C(=O)/C(=C/C(C)=C/c3ccccc3)SC2=S)cc1
  Mtb hypoxia rep: 0	Mtb hypoxia rep growth: 7	Sa RN4220 lethal: 7.5	Bead autofluor: 2609	ugtP null kill: 2	PrP 5UTR inh: -24	BJeLR viability: -12

Cn1c(CNC(=O)C(Cc2ccccc2)NC(=O)c2ccccc2)cc(=O)n(C)c1=O (stereo unspecified)
  Mtb hypoxia rep: -15	Mtb hypoxia rep growth: 1	Sa RN4220 lethal: -0.5	Bead autofluor: 5067	ugtP null kill: -1	PrP 5UTR inh: -8	BJeLR viability: 8

CC1CC(c2ccccc2)n2nc(NC(=O)CCc3ccccc3)nc2N1 (stereo unspecified)
  Mtb hypoxia rep: nt	Mtb hypoxia rep growth: nt	Sa RN4220 lethal: -3.4	Bead autofluor: 2116	ugtP null kill: -5	PrP 5UTR inh: -12	BJeLR viability: 2

Cc1oc(S(=O)(=O)N2CCOCC2)cc1C(=O)Nc1ccc(F)cc1
  Mtb hypoxia rep: 5	Mtb hypoxia rep growth: 2	Sa RN4220 lethal: 3.2	Bead autofluor: 3996	ugtP null kill: 0	PrP 5UTR inh: -20	BJeLR viability: 0

In the list so far, 2 contain bromine.
Abbreviations – A = Mtb hypoxia rep; B = Mtb hypoxia rep growth; C = Sa RN4220 lethal; D = Bead autofluor; E = ugtP null kill; F = PrP 5UTR inh; G = BJeLR viability
O=C(NNC(=S)NC(=O)c1ccc(Br)cc1)c1cccc([N+](=O)[O-])c1
  A: 13	B: 3	C: 44	D: 3696	E: 9	F: -7	G: -1

NC(=O)c1ccc(NS(=O)(=O)c2ccc(Br)s2)cc1
  A: -1	B: 3	C: 4.7	D: 9156	E: 1	F: 2	G: nt

The list continues:
| compound | Mtb hypoxia rep | Mtb hypoxia rep growth | Sa RN4220 lethal | Bead autofluor | ugtP null kill | PrP 5UTR inh | BJeLR viability |
| --- | --- | --- | --- | --- | --- | --- | --- |
| CCSc1c(-c2ccccc2)nc2c(C)cccc2c1C(=O)O | nt | nt | 19 | 3549 | -3 | -32 | 0 |
| Oc1ccc(Cl)cc1Cc1ccccc1 | 5 | 4 | -6.1 | 3354 | -7 | 6 | nt |
| CCOc1ccc(-n2c(SCC(N)=O)nc3sc4c(c3c2=O)CCN(C)C4)cc1 | 11 | 8 | 4.4 | 5428 | 0 | -70 | -9 |
| Cn1cccc1Cc1nnc(SCC(=O)NC2CCCC2)n1-c1ccc(F)cc1 | nt | nt | 5.8 | 5552 | 6 | -34 | -1 |
| COc1ccc(C2C3=C(CCCC3=O)Nc3nc(C(F)(F)F)nn32)c(OC)c1OC (stereo unspecified) | 2 | 1 | 6.9 | 2989 | -3 | -5 | -6 |
| O=C(NC1CCCCC1)N1CCCCCC1 | 16 | 13 | 0.6 | 7826 | -2 | -4 | 0 |
| CCCOc1ccc(N2C(=O)CC(N3CCN(CCN=CC4C(=O)CC(C)(C)CC4=O)CC3)C2=O)cc1 (stereo unspecified) | 17 | 4 | 3.6 | 4564 | 5 | -14 | 3 |
| CCNc1ccc(C(=O)OCC(=O)N2c3ccccc3NC(=O)C2(C)C)cc1[N+](=O)[O-] | 0 | 3 | 20 | 2762 | -1 | -10 | -12 |
| COc1cc(Cl)c(C)cc1NC(=O)[C@@H]1CCCN1C(=O)c1cccs1 | -6 | -1 | 3.8 | 2077 | 3 | -18 | 2 |
| CS(=O)(=O)N(CC(=O)N/N=C/c1cccs1)c1cccc(Cl)c1Cl | nt | nt | nt | 4383 | nt | -22 | 3 |
| Cc1ccnc(N/C=C(/NC(=O)c2ccccc2)C(=O)N/N=C\c2ccc(Cl)cc2)n1 | nt | nt | nt | 4524 | nt | -13 | 2 |
| CC1(C)CC2CC(C)(CN2C(=S)NC(=O)c2ccccc2Cl)C1 (stereo unspecified) | -5 | 7 | -3.8 | 8553 | -9 | -15 | -6 |
| C[C@H](CO)N1C[C@H](C)[C@@H](CN(C)S(=O)(=O)c2ccccc2)Oc2ccc(NC(=O)Nc3ccc(C(F)(F)F)cc3)cc2C1=O | -6 | 3 | -8.9 | 3733 | -12 | -19 | nt |
| COc1cc(CN2CCN(Cc3ccc(C)cc3)CC2)c([N+](=O)[O-])cc1OC | -11 | -7 | 5.2 | 2492 | 1 | -9 | 2 |
| COCCCN1C(=O)c2ccc(C(=O)OCC(=O)N3CCN(c4ccccc4)CC3)cc2C1=O | 7 | 12 | 4.4 | 4470 | 12 | -4 | -21 |
| OCCC1CC(O)C(O)[C@]2(CCc3ccccc3CO2)O1 (stereo partly specified) | 1&12&5 | 2&4&10 | 4.5&7.9&1.7 | nt | -1&3&-2 | nt | nt |
| CCOc1ccc(-c2nnc(SCC(=O)N3CCOCC3)o2)cc1 | nt | nt | -4.3 | 2633 | 4 | -18 | -3 |
| COc1ccc(OC)c(/C=C/C(=O)OCC(=O)Nc2ccc(Cl)c(S(=O)(=O)N(C)C)c2)c1 | -8 | 2 | 2.7 | 4927 | 6 | -12 | 3 |
